# Screening data deposited in PubChem by Broad Institute.
# HIV Env fusion = HIV envelope-mediated fusion inhibition; HeLa-JRFL Env/CEM21 cell fusion, luciferase; inhibition, % at 12.3 µM; 1.1% of 360,000 active; AID 651610;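 active = mean replicate inhibition score of at least 50 and every replicate individually at or above 50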;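 also: 0% = plate neutral controls and 100% = maraviroc near 300 nM; one replicate is shown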
# UUG fidelity = alters start codon recognition fidelity in yeast; S. cerevisiae UUG-firefly luciferase reporter, luminescence/redox ratio; 0.13% of 350,000 active; activity score, % at 18.7 µM;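 active = replicate mean at a twofold rise or more, about +100% in these data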;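 also: firefly luciferase made from a UUG start codon reports start codon fidelity; reporter light over untreated wells divided by growth signal over untreated wells; some hits fall short of that in this replicate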
# * = called active by the depositor; [ ] = dose if it differs, or a comment. This is a subset; count on the stated rates, not on these rows.
SMILES,HIV Env fusion,UUG fidelity
COc1ccc(S(=O)(=O)N[C@H]2CC[C@@H](CC(=O)NCc3ccccc3F)O[C@H]2CO)cc1,1[16.7 µM],-4
C[C@H]1CN([C@@H](C)CO)C(=O)c2cc(/C=C/c3ccccc3)cnc2O[C@H]1CN(C)C(=O)c1ccc2c(c1)OCO2,11[16.7 µM],4
O=C(N[C@@H]1CC[C@@H](CCNS(=O)(=O)c2ccc(Cl)cc2)O[C@H]1CO)c1cccc(F)c1,4[16.7 µM],7
C[C@H](CO)N1C[C@H](C)[C@@H](CN(C)C(=O)Nc2cccc3ccccc23)OCCCC[C@H](C)Oc2ccc(NC(=O)CCC(F)(F)F)cc2C1=O,29[16.7 µM],-3
C[C@H](CO)N1C[C@H](C)[C@@H](CN(C)C(=O)c2ccccc2F)Oc2cc(C#CCN(C)C)ccc2S1(=O)=O,24[16.7 µM],0
COCC(=O)N(C)C[C@@H]1Oc2cc(Br)ccc2S(=O)(=O)N([C@@H](C)CO)C[C@H]1C,-10[16.7 µM],3
C[C@H](CO)N1C[C@H](C)[C@H](CN(C)S(=O)(=O)c2ccccc2F)Oc2ncc(C#Cc3ccncc3)cc2C1=O,-5[16.7 µM],-2
CC(C)NC(=O)N[C@H]1CC[C@@H](CCNC(=O)C2CCOCC2)O[C@@H]1CO,-4[16.7 µM],-14
CC(C)NC(=O)Nc1ccc2c(c1)C(=O)N([C@H](C)CO)C[C@@H](C)[C@@H](CN(C)Cc1ccccc1)OCCCC[C@H](C)O2,-10[16.7 µM],7
CC(C)NC(=O)N(C)C[C@H]1Oc2ccc(NC(=O)CCN3CCOCC3)cc2C(=O)N([C@@H](C)CO)C[C@@H]1C,-6[16.7 µM],-6
C[C@H]1CCCCO[C@H](CN(C)C(=O)NC2CCCCC2)[C@@H](C)CN([C@@H](C)CO)C(=O)c2cc(NC(=O)Nc3ccc4c(c3)OCO4)ccc2O1,63*[16.7 µM],-5
O=C(C[C@@H]1CC[C@H]2[C@@H](COC[C@@H](O)CN2Cc2cc(F)cc(F)c2)O1)NC1CCCC1,-6[16.7 µM],-4
C[C@H](CO)N1C[C@H](C)[C@H](CN(C)C(=O)Nc2ccccc2)Oc2ccc(N(C)C)cc2CC1=O,-4[16.7 µM],4
N#C[C@@H]1[C@@H](c2ccc(C#CC3CC3)cc2)[C@H](CO)N1C(=O)c1cccc(F)c1,42[16.7 µM],16
C[C@H]1CN([C@@H](C)CO)C(=O)Cc2cc(NC(=O)Cn3cnnn3)ccc2O[C@H]1CN(C)C(=O)Nc1ccc2c(c1)OCO2,5[16.7 µM],-5

# In another format: entries from further up.
SMILES	HIV Env fusion	UUG fidelity
C[C@H](CO)N1C[C@H](C)[C@H](CN(C)S(=O)(=O)c2ccccc2F)Oc2ncc(C#Cc3ccncc3)cc2C1=O	-5[16.7 µM]	-2
C[C@H]1CCCCO[C@H](CN(C)C(=O)NC2CCCCC2)[C@@H](C)CN([C@@H](C)CO)C(=O)c2cc(NC(=O)Nc3ccc4c(c3)OCO4)ccc2O1	63*[16.7 µM]	-5

# Remaining list, next part.
SMILES,HIV Env fusion,UUG fidelity
C[C@@H]1CN([C@H](C)CO)C(=O)Cc2cc(NC(=O)NC3CCCCC3)ccc2O[C@H]1CN(C)Cc1ccc(Cl)c(Cl)c1,-10[16.7 µM],28
Cc1noc(C)c1NC(=O)Nc1ccc2c(c1)C(=O)N(C)[C@@H]1CC[C@H](CC(=O)N(C)C)O[C@@H]1CO2,-26[16.7 µM],-5
COc1ccc(NC(=O)Nc2ccc3c(c2)C(=O)N([C@H](C)CO)C[C@@H](C)[C@@H](CN(C)S(=O)(=O)c2ccc(Cl)cc2)OCCCC[C@H](C)O3)cc1,-22[16.7 µM],-5
Cc1ccccc1S(=O)(=O)NCC[C@@H]1CC[C@H](NC(=O)Nc2cccc(F)c2)[C@@H](CO)O1,11[16.7 µM],10
Cc1noc(C)c1S(=O)(=O)Nc1ccc2c(c1)CC(=O)N([C@H](C)CO)C[C@@H](C)[C@H](CN(C)S(=O)(=O)c1ccc(Cl)cc1)O2,-8[16.7 µM],-3
CC(C)OC(=O)N(C)C[C@@H]1OCc2cn(nn2)CCCC(=O)N([C@@H](C)CO)C[C@@H]1C,-6[16.7 µM],-2
Cc1noc(C)c1NC(=O)N(C)C[C@H]1Oc2ncc(/C=C/c3ccccc3)cc2C(=O)N([C@@H](C)CO)C[C@H]1C,9[16.7 µM],10
CCCc1cn(CC[C@@H]2CC[C@@H](NC(=O)C3CCC3)[C@@H](CO)O2)nn1,11[16.7 µM],-2
C[C@H]1CN([C@@H](C)CO)S(=O)(=O)c2ccc(-c3ccc(F)cc3)cc2O[C@H]1CN(C)C(=O)c1ccccc1F,20[16.7 µM],11
C[C@@H]1CN([C@@H](C)CO)C(=O)Cc2cc(N(C)C)ccc2O[C@H]1CN(C)Cc1ccc(C(F)(F)F)cc1,28[16.7 µM],0
C[C@@H]1CCCCO[C@H](CN(C)Cc2ccc3c(c2)OCO3)[C@@H](C)CN([C@H](C)CO)C(=O)c2cc(NS(=O)(=O)c3ccccc3)ccc2O1,-35[16.7 µM],3
CCCN(C)C[C@@H]1Oc2cc(C#Cc3cccnc3)ccc2S(=O)(=O)N([C@H](C)CO)C[C@@H]1C,25[16.7 µM],-6
O=C(C[C@@H]1C=C[C@H](NC(=O)c2ccccn2)[C@H](CO)O1)NCc1cccc(F)c1,2[16.7 µM],2
C[C@H](NC(=O)C[C@H]1C[C@H]2c3cc(NC(=O)CN(C)C)ccc3O[C@H]2[C@H](CO)O1)c1ccccc1,14[16.7 µM],-4
O=C(CCN1CCCCC1)NCC[C@@H]1CC[C@@H](NS(=O)(=O)c2cccc(F)c2)[C@@H](CO)O1,16[16.7 µM],-5

# Shown with each value named: part of the list above
C[C@H]1CN([C@@H](C)CO)S(=O)(=O)c2ccc(-c3ccc(F)cc3)cc2O[C@H]1CN(C)C(=O)c1ccccc1F
  HIV Env fusion = 20[16.7 µM]
  UUG fidelity = 11
C[C@@H]1CN([C@H](C)CO)C(=O)Cc2cc(NC(=O)NC3CCCCC3)ccc2O[C@H]1CN(C)Cc1ccc(Cl)c(Cl)c1
  HIV Env fusion = -10[16.7 µM]
  UUG fidelity = 28

# Following part
SMILES,HIV Env fusion,UUG fidelity
COc1ccc(NC(=O)Nc2ccc3c(c2)C(=O)N([C@H](C)CO)C[C@H](C)[C@@H](CN(C)Cc2ccc4c(c2)OCO4)O3)cc1,-2[16.7 µM],2
O=C(C[C@H]1C[C@H]2c3cc(NC(=O)Nc4ccccc4F)ccc3O[C@H]2[C@@H](CO)O1)NCc1cc(F)ccc1F,-14[16.7 µM],11
O=C(Nc1ccccc1F)N[C@H]1CC[C@H](CCNC(=O)C2CCOCC2)O[C@@H]1CO,-6[16.7 µM],3
C[C@@H]1CN([C@H](C)CO)C(=O)c2cc(-c3ccc(F)cc3)cnc2O[C@@H]1CN(C)C(=O)c1ccccn1,-9[16.7 µM],-15
O=C(NC1CCCCC1)N[C@@H]1CC[C@@H](CCNS(=O)(=O)c2ccc(Cl)cc2)O[C@@H]1CO,-2[16.7 µM],11
COc1cccc(C#Cc2cnc3c(c2)C(=O)N([C@H](C)CO)C[C@H](C)[C@H](CN(C)C(=O)C2CC2)O3)c1,-30[16.7 µM],10
COc1ccc(-c2ccc([C@@H]3[C@H](C#N)N(C(=O)C4CCCC4)[C@H]3CO)cc2)cc1,4[16.7 µM],17
CNC[C@H]1OCCCC[C@@H](C)Oc2ccc(NS(=O)(=O)c3ccccc3)cc2C(=O)N([C@@H](C)CO)C[C@@H]1C,-5[16.7 µM],22
C[C@@H]1CN([C@H](C)CO)C(=O)Cc2cc(NC(=O)c3ccncc3)ccc2O[C@@H]1CN(C)Cc1ccc(C(F)(F)F)cc1,15[16.7 µM],10
COc1ccc(S(=O)(=O)N(C)C[C@@H]2Oc3ccc(NS(=O)(=O)c4cn(C)cn4)cc3CC(=O)N([C@H](C)CO)C[C@H]2C)cc1,-2[16.7 µM],-8
O=C(C[C@@H]1C=C[C@@H](NC(=O)C2CC2)[C@H](CO)O1)Nc1nccs1,-1[16.7 µM],-19
C[C@@H]1CN([C@@H](C)CO)C(=O)c2cc(-c3ccc(F)cc3)cnc2O[C@@H]1CN(C)C(=O)Cc1ccccc1,11[16.7 µM],31
CNC[C@H]1Oc2c(N)cccc2C(=O)N([C@H](C)CO)C[C@H]1C,3[16.7 µM],-6
COc1ccccc1C(=O)Nc1ccc2c(c1)C(=O)N(C)C[C@H](OC)[C@H](C)CN(C(C)=O)[C@H](C)CO2,1[16.7 µM],-1
C[C@@H]1CN([C@@H](C)CO)C(=O)c2cc(NS(C)(=O)=O)ccc2O[C@H]1CN(C)CC1CCCCC1,-6[16.7 µM],17

# Structures listed above shown as hits in HIV Env fusion.
SMILES,HIV Env fusion,UUG fidelity
C[C@H]1CCCCO[C@H](CN(C)C(=O)NC2CCCCC2)[C@@H](C)CN([C@@H](C)CO)C(=O)c2cc(NC(=O)Nc3ccc4c(c3)OCO4)ccc2O1,63*[16.7 µM],-5

# More entries
SMILES,HIV Env fusion,UUG fidelity
CC(C)NC(=O)N(C)C[C@H]1Oc2ncc(C3=CCCCC3)cc2C(=O)N([C@H](C)CO)C[C@@H]1C,7[16.7 µM],18
C[C@@H]1CCCCO[C@@H](CN(C)C(=O)Cc2ccccc2)[C@H](C)CN([C@@H](C)CO)C(=O)c2cc(NC(=O)NC3CCCCC3)ccc2O1,-8[16.7 µM],9
O=C(C[C@@H]1CC[C@@H](NC(=O)Cc2ccccn2)[C@H](CO)O1)NCCCN1CCOCC1,0[16.7 µM],-21
CO[C@H]1CN(C)C(=O)c2ccc(NC(C)=O)cc2OC[C@@H](C)N(C(=O)Cc2cccnc2)C[C@@H]1C,7[16.7 µM],2
C[C@H](CO)N1C[C@H](C)[C@H](CN(C)C(=O)c2ccc(F)cc2)Oc2ncc(-c3ccncc3)cc2C1=O,-30[16.7 µM],-5
CO[C@H]1CN(C)C(=O)c2cc(NC(=O)C3CCOCC3)ccc2OC[C@H](C)N(C)C[C@H]1C,0[16.7 µM],-12
C[C@@H]1CN([C@H](C)CO)S(=O)(=O)c2ccc(C#Cc3cccc(F)c3)cc2O[C@@H]1CN(C)C,-14[16.7 µM],6
O=C(C[C@@H]1C=C[C@H](NC(=O)CC2CC2)[C@@H](CO)O1)NCc1ccc(-c2ccccc2)cc1,-12[16.7 µM],10
CN(C)CC(=O)N[C@H]1CC[C@H](CCn2cc(C3CCCCC3)nn2)O[C@H]1CO,-8[16.7 µM],-19
COC(=O)C[C@@H]1CC[C@H]2[C@H](COc3ccc(NS(=O)(=O)c4ccccc4F)cc3C(=O)N2C)O1,-9[16.7 µM],0
COc1ccccc1NC(=O)N[C@H]1CC[C@@H](CC(=O)N2CCC(Cc3ccccc3)CC2)O[C@@H]1CO,7[16.7 µM],3
O=C(C[C@H]1C[C@H]2c3cc(NC(=O)C4CCOCC4)ccc3O[C@H]2[C@H](CO)O1)NCc1ccccn1,-13[16.7 µM],-19
C[C@@H]1CN([C@@H](C)CO)C(=O)c2cc(C#Cc3ccccc3)cnc2O[C@H]1CN(C)C(=O)C1CC1,-49[16.7 µM],-4
COc1ccc(C#Cc2ccc3c(c2)O[C@H](CN(C)C(=O)c2ccccn2)[C@@H](C)CN([C@H](C)CO)S3(=O)=O)cc1,17[16.7 µM],-9
O=C(NCC[C@H]1CC[C@@H](NS(=O)(=O)c2cccc(F)c2)[C@H](CO)O1)c1cnccn1,-6[16.7 µM],-15
C[C@@H]1CN([C@H](C)CO)C(=O)c2cc(NS(=O)(=O)c3cccs3)ccc2O[C@@H](C)CCCCO[C@H]1CN(C)C(=O)Nc1ccc(F)cc1,2[16.7 µM],-3
C[C@H](CO)N1C[C@H](C)[C@@H](CN(C)C(=O)c2ccncc2)OCCCC[C@H](C)Oc2ccc(NS(=O)(=O)c3ccccc3)cc2C1=O,-14[16.7 µM],-3
Cc1ccc(-c2ccc3c(c2)O[C@@H](CN(C)Cc2cccnc2)[C@@H](C)CN([C@@H](C)CO)S3(=O)=O)cc1,10[16.7 µM],0
C=CC[C@@]1(C(=O)NCCCOC)N=C(c2ccc(OCCCO)cc2)O[C@@H]1c1ccccc1,-34[16.7 µM],1
C[C@H]1CN([C@@H](C)CO)S(=O)(=O)c2ccc(-c3ccc(C(=O)N(C)C)cc3)cc2O[C@H]1CN(C)C(=O)Cc1ccccn1,-9[16.7 µM],3
C[C@H]1CN([C@@H](C)CO)C(=O)Cc2cc(NC(=O)NC3CCCCC3)ccc2O[C@@H]1CN(C)CC1CCCCC1,-14[16.7 µM],3
C[C@H]1CN([C@@H](C)CO)C(=O)Cc2cc(NC(=O)Nc3ccccc3)ccc2O[C@@H]1CN(C)Cc1ccc(Oc2ccccc2)cc1,-17[16.7 µM],6
O=S(=O)(Cc1ccccc1)NCC[C@@H]1CC[C@@H](NS(=O)(=O)c2ccccc2)[C@H](CO)O1,2[16.7 µM],0
O=C(C[C@H]1CC[C@@H](NC(=O)Nc2ccccc2F)[C@H](CO)O1)NCc1ccccc1,-9[16.7 µM],0
C[C@@H]1CN([C@@H](C)CO)S(=O)(=O)c2ccc(-c3ccccc3F)cc2O[C@@H]1CN(C)C,19[16.7 µM],-11
